Source: PubChem BioAssay (several laboratories)
LANA-H2A inh – blocks KSHV LANA binding to histone H2A/H2B. cell-free LANA-H2A/H2B peptide, fluorescence polarization. inhibition, % (test concentration not listed). 0.6% of 320,000 active; in the data active = inhibition mostly above about 10%, no sharp cut-off; inactive = mostly below about 6.7%;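 also: stock transfer was 7.5 nL into about 10 µL; 0% = median of vehicle wells and 100% = median of positive control wells; one replicate is shown; the record names a cut of 25% in any replicate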
Vif A3G – HIV-1 Vif–A3G interaction blockers – biochemical, TR-FRET, GST-Vif 1-94, biotin-A3G peptide, dose response retest, primary screen (AID 1117319); inhibition, %, or IC50 in µM where a hit was titrated; TR-FRET GST-Vif / biotin-A3G peptide binding; higher % means a stronger effect; test concentration not given here; strong numbers were not always called active; 0.57% of 260,000 active;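 active = above the screen mean plus three standard deviations and confirmed in dose response; inconclusive = results disagree or hit not tested in dose response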;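 also: Vif residues 1-94 fused to GST binding biotinylated APOBEC3G peptide 110-148; 0% = full assay without inhibitor and 100% = GST in place of GST-Vif; retest series ran down from 100 µM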
E coli growth – E. coli growth inhibition; Escherichia coli growth, OD600, 23 h; active compounds read low; OD600 absorbance (no concentration beside the values); 0.21% of 330,000 active;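 active = OD600 absorbance below the run mean of sample wells minus 3.6 SD, in any replicate, cut at about 0.56 in these data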;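 also: stock transfer was 300 nL into about 60 µL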
HNF4A DNA FP – change in binding of human HNF4 alpha to DNA | HNF4a-FITC DNA binding, fluorescence polarization, 1 h | activity change, % at 10 µM | 0.3% of 360,000 active | AID 1224865; in the data active = activity change above about 30%, passing the limit was not always enough;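 also: controls were the assay level and a saturating level of protein; the project sought stronger binding though the title names inhibitors; some compounds called inactive have numbers as strong as hits; positive values seem to mean higher polarization but the record does not say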
Target sequence (P41235 whole entry, looked up): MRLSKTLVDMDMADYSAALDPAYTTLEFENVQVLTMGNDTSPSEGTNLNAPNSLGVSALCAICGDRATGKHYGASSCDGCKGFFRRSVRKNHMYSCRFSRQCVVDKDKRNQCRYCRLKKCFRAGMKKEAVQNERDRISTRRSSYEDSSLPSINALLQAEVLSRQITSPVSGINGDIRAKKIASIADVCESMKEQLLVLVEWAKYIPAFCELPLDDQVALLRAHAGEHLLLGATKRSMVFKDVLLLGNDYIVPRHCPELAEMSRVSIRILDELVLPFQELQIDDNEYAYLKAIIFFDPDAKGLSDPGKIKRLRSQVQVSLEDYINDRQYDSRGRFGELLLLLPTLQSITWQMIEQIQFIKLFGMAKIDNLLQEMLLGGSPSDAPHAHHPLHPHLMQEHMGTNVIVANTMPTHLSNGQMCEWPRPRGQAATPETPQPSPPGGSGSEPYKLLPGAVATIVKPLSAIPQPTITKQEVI
Bfl-1 A1 inh – inhibitors of the anti-apoptotic protein A1, read as caspase activation. caspase activation, % (concentration not given with the values). MEF A1-2A-BIM cells, Caspase-Glo 3/7 luminescence, 3 h; percent of clofoctol response, vehicle zero. 0.066% of 330,000 active;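 active = over half of replicate activation scores above 10%, or exactly half above 10 with the replicate mean above 10; inconclusive = replicate mean below 10 yet half the replicates above 10; inactive = over half of replicates below 10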;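 also: wells of about 30 µL received 50 nL stock; many hits fall short of the cut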
UCH37 DUB inh – human UCH37 deubiquitinating enzyme inhibition. 0.33% of 330,000 active. purified proteasome/UCH37, Ub-AMC cleavage fluorescence. inhibition, % (no concentration beside the values);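 active = mean of two replicates above 20%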;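 also: 0% = compound-free wells with enzyme and 100% = wells lacking proteasome; stock transfer was 100 nL into about 20 µL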
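Material: Human UCH37 enzyme supplied as purified proteasome complex | Schedule: 30 min preincubation with enzyme, 25 min cleavage at room temperature | Detection: AMC fluorescence 355/460 nm | Measure: % inhibition of Ub-AMC cleavage fluorescence | Controls: Wells without proteasome as full block, compound-free enzyme plus substrate as uninhibited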
Beta2AR agonist – human beta-2 adrenergic receptor agonism by FAP; Am2.2-beta2AR cells, FAP receptor internalization, flow cytometry; reference of the scale not given here; response, % (no concentration beside the values); 0.43% of 340,000 active;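 active = response above a set limit, near 3 SD of response in nonfluorescent compounds, cut at about 42% in these data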;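 also: stock transfer was 100 nL into about 11 µL; a reference agonist was the positive control; negative values mostly stem from fluorescent compounds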
Target sequence (P07550 whole entry, looked up): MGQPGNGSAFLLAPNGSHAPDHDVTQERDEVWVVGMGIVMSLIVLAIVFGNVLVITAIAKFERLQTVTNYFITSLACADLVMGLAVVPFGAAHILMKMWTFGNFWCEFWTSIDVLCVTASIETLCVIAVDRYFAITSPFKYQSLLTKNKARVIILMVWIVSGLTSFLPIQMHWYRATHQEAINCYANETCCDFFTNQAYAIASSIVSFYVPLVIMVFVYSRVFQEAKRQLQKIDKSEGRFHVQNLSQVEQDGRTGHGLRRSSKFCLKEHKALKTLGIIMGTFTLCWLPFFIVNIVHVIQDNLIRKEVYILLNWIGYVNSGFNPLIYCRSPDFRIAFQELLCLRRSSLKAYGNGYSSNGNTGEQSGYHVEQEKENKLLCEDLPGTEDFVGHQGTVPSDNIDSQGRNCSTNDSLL
Active calls of the source: *; ? = inconclusive; · = no result given; & = joins results of further samples.

smiles,LANA-H2A inh,Vif A3G,E coli growth,HNF4A DNA FP,Bfl-1 A1 inh,UCH37 DUB inh,Beta2AR agonist
CCCCN(CC)S(=O)(=O)c1ccc(C(=O)N=c2sc3cc(NC(C)=O)ccc3n2C)cc1,1.6,5%,·,-1.6,0.8,·,-2
Cc1ccc(C)c(NC(=O)CCN2C(=O)[C@@H]3Cc4ccccc4CN3C2=O)c1,-0.2,·,0.64,1.7,-1.2,-1.4,-3
CCN(CC)CCC(c1ccc2c(c1)OCO2)c1c(O)cc(OC)cc1OC (stereo unspecified),-0.4,·,0.67,3.2,1.4,-0.1,3
COc1ccccc1C1=NN(C(=S)Nc2ccccc2)C(c2ccco2)C1 (stereo unspecified),1.4,-11%,0.76,2.0,-0.1,1.8,13
CCn1cc(C(=O)NCCc2ccccc2C)c(=O)c2ccc(C)nc21,1.1,·,0.69,3.7,-0.4,-0.5,4
Cc1ccc2cc(/C=N/NC(=O)CN3CCCCC3)c(Cl)nc2c1,0.1,-4%,·,7.2,-1.2,·,-4
CS(=O)(=O)N1c2ccccc2[C@]2(Br)C[C@H]3C(=O)N[C@@H](Cc4ccccc4)C(=O)N3[C@H]12,3.8,·,·,-1.2,0.9,3.0,-2
Nc1ccc(C(=O)N2CCN(S(=O)(=O)c3ccc(Cl)s3)CC2)cc1[N+](=O)[O-],2.0,0%,0.68,0.4,-0.7,5.8,5
CCn1c(-c2ccsc2)nc2c1c(=O)[nH]c(=O)n2Cc1ccccc1,3.3,-8%,0.7,7.9,-0.4,-6.9,-3
O=C(Nc1cccc2ccccc12)C12CC3CC(C1)CC(n1cnc([N+](=O)[O-])n1)(C3)C2,3.5,8%,0.73,-0.7,0.8,4.1,-12
COc1ccc(CN(C)c2ncnc(N)n2)cc1,-3.1,30%,0.64,6.3,0.4,0.8,-3
Cc1ccc(S(=O)(=O)N2CCC(C(=O)N3CCC[C@H]3C(=O)NCc3ccccc3)CC2)cc1,1.5,6%,0.71,8.6,-0.5,4.4,-6
COc1cccc(-c2nn(C)c3sc(C(=O)N4CCN(c5ccccn5)CC4)cc23)c1,-1.7,7%,0.72,1.0,-1.2,2.8,11
CCN(CC)C(=O)Cn1cc(S(=O)(=O)CC(=O)N2CCOCC2)c2ccccc21,2.6,1%,0.75,1.0,0.2,-3.3,-1
CCCCN(C(=O)CC(c1ccccc1)c1ccccc1)c1c(N)n(CCC)c(=O)[nH]c1=O,0.1,·,0.66,1.6,1.4,-0.1,0
CCOC(=O)C1CCN(Cc2oc(CO)cc(=O)c2O)CC1,5.2,31%,0.66,3.1,1.0,1.0,-2
Cc1ccc(S(=O)(=O)/C(C#N)=C/c2c(N3CCN(C)CC3)nc3c(C)cccn3c2=O)cc1,·,?,0.71,-2.6,-0.2,-0.4,-3
CNS(=O)(=O)c1cc(O)c2c(S(=O)(=O)NC)cccc2c1,-4.0,2%,0.73,2.0,1.2,3.9,2
O=C(O)CCN1C(=O)c2ccc(NC(=O)CSc3ccccc3)cc2C1=O,0.6,·,0.71,-0.2,0.4,1.2,-2
COC(=O)Cn1c(=NC(=O)c2nc3ccccc3s2)sc2cc(S(N)(=O)=O)ccc21,1.0,15%,·,-0.1,-0.4,·,-19
COc1ccc(-n2c(SCC(=O)NCC3CCCO3)nc3c([nH]c4ccccc43)c2=O)cc1OC (stereo unspecified),-1.0,-1%,0.66,2.9,0.7,-1.0,-11
CC(c1ccccc1)N1CC(C(=O)N2CCN(c3ccc(F)cc3)CC2)CC1=O (stereo unspecified),-8.0,-3%,0.72,-0.2,-0.9,1.7,-6
CCc1ccc(CN(C)C(=O)C2CCC(=O)N(Cc3cccc(OC)c3)C2)nc1 (stereo unspecified),-1.3,·,0.69,-1.5,1.0,-0.8,5
O=C(NCc1cccnc1)/C(=C/c1ccccc1)NC(=O)c1ccccc1,4.7,·,0.71,-2.3,0.2,4.6,0
COc1ccc(CN2CCNC(=O)C2CC(=O)NC2CCC2)c(OC)c1 (stereo unspecified),5.5,1%,0.68,3.6,0.9,-1.4,2
c1ccc(-c2nnc(-c3c[nH]c4ccccc34)nc2-c2ccccc2)cc1,-2.0,3%,0.82,-4.7,0.4,5.0,0
CCCNC(=O)c1nc(C)c(C)nc1C(=O)Nc1cccc(Cl)c1,-1.9,0%,0.65,2.2,0.4,2.5,-5
CCc1cc2c(=O)c(-c3nc4ccccc4n3C)coc2c(CN2CCN(C)CC2)c1O,-0.3&-31,1%,0.69,-3.3,0.6,-31,-18
Cc1nn(C(C)C(=O)NC2CCCCC2)c(=O)c2nn(-c3ccccc3)c(C)c12 (stereo unspecified),3.8,·,0.72,6.2,0.2,2.7,-2
CCC(=O)N(Cc1ccco1)Cc1cc2cc3c(cc2[nH]c1=O)OCO3,0.3,-8%,0.69,0.3,0.4,-156,-3
CC(C)(C)N/C=C(\C#N)S(=O)(=O)c1ccc(Br)cc1,-0.7,1%,0.65,3.7,-0.3,-0.2,-6
CC1(C)CC(=O)C=C(NCc2ccccc2)C1,3.7,2%,0.67,-4.5,0.3,2.3,2
Cc1nc(NNC(=O)c2ccc(Cl)cc2Cl)cc(-c2ccccc2)n1,4.4,0%,0.7,1.4,-0.4,-0.3,-8
COc1cccc(C2CC(c3cccs3)=NN2C(=O)CSc2nc3c(cnn3-c3ccc(F)cc3)c(=O)[nH]2)c1OC (stereo unspecified),-4.5,·,0.75,8.6,-0.1,-33,-10
COc1ccc(N2C(=O)CC(Cc3ccc(Br)cc3)C2=O)cc1 (stereo unspecified),0.3,·,0.66,0.8,-0.2,-0.2,-3
COc1ccc(Cn2c(-c3ccccc3C)nc3c(c(=O)c4ccccc4n3C)c2=O)cc1,-2.8,·,0.67,0.8,-1.1,2.8,-17
Cc1ccc(CN(C)CC(=O)Nc2cccc([N+](=O)[O-])c2)o1,-0.7,8%,0.69,1.6,0.7,1.8,-4
CCOc1ccc(OCCC(=O)N(CC(=O)Nc2ccccc2C(F)(F)F)Cc2ccco2)cc1,7.4,5%,0.73,0.6,1.7,2.4,-2
COC(=O)c1sc2nc(C)cc(-c3ccccc3)c2c1N,-1.6,15%,0.72,0.6,0.3,-12,-2
O=C1NC(=O)C(CSc2ccccc2)(c2ccccc2)N1 (stereo unspecified),·,-2%,0.66,0.8,·,-0.5,-1
CCC(C(=O)NC1CCCC1)N(C(=O)Cn1nnc(-c2ccc(C)o2)n1)c1ccc(F)cc1 (stereo unspecified),·,·,0.68,4.3,·,3.2,-4
Cc1c(C(=O)N/N=C/c2cccnc2)sc(N)c1C#N,-2.9,2%,·,-2.4,-1.3,·,6
CC(C)(C)NC(=O)C(c1cccs1)N(Cc1cccs1)C(=O)c1csnn1 (stereo unspecified),7.9,1%,0.71,1.6,0.7,1.8,-1
COc1ccc(C(=O)N(C)Cc2ccccc2F)cc1S(=O)(=O)N1CCCC1,1.0,-1%,0.69,-2.8,-0.5,2.1,-8
COc1ccc(-n2c(=S)[nH]c3cc(C(=O)NCc4cccnc4)ccc3c2=O)c(OC)c1,-0.4,·,0.64,3.1,1.1,1.7,1
CCSc1nc2c([nH]c3ccccc32)c(=O)n1C,9.0,2%,0.76,-1.4,0.1,-3.9,-10
CCOC(=O)c1ccc(S(=O)(=O)NNC(=O)Cc2csc(C)n2)cc1,0.8,·,0.69,-0.6,0.6,-1.7,-8
CC1CCC2(CC1)NC(=O)N(CC(=O)NCCc1ccccc1)C2=O (stereo unspecified),-1.9,4%,0.65,7.8,-0.6,0.8,9
COc1ccccc1C=Cc1ccnc2ccccc12,·,0%,0.69,5.9,·,-19,-7
O=C(Nc1cccc(Cl)c1)c1ccc(F)c(S(=O)(=O)N2CCN(c3ccccn3)CC2)c1,·,11%,0.75,0.9,-0.3,1.6,-3
COc1ccc(C2C/C(=N\O)C(C)(C)O2)cc1 (stereo unspecified),-1.6,4%,·,5.5,-0.1,·,-3
Cc1ccc(C(=O)NCC(c2ccco2)N2CCOCC2)cc1 (stereo unspecified),-5.5,-1%,0.7,-1.0,-0.2,-0.1,-1
CC(=O)N1CCC2(CC1)C(C#N)=C(N)OC1=C2C(=O)CC(C)(C)C1,-3.2,-3%,0.72,-1.6,-0.2,2.1,2
O=C(Nc1ccccc1)c1csc(-c2ccccc2)n1,7.1,-3%,0.66,5.5,0.4,-0.9,-4
Cc1ccc(Oc2nc3ccccn3c(=O)c2/C=C(\C#N)C(=O)NC2CCS(=O)(=O)C2)c(C)c1 (stereo unspecified),2.4,·,0.69,-0.9,0.4,-43,5
COc1ccc(OC)c(C(=O)CSc2nccc(-c3ccc(Br)cc3)n2)c1,-0.9,-11%,0.73,1.1,-0.3,-33,-7
Brc1ccc2c(c1)[C@H]1OCC[C@H]1[C@@H](c1cccs1)N2,-5.5,·,0.69,-2.0,0.8,2.2,-1
N#Cc1c(-c2ccco2)cc(-c2ccccc2)[nH]c1=O,-4.5,14µM*,·,28,0.1,·,3
COc1ccc(-c2nnc(SCC(=O)NNC(=O)c3ccc(C)cc3)o2)cc1,4.1,14%,0.71,2.9,0.0,6.2,7
O=C(COC(=O)COc1cccc(C(F)(F)F)c1)NC(=O)NC1CCCCC1,1.5,1%,0.65,-6.2,1.2,0.5,2

More structures follow.
smiles,LANA-H2A inh,Vif A3G,E coli growth,HNF4A DNA FP,Bfl-1 A1 inh,UCH37 DUB inh,Beta2AR agonist
COc1cc(C(=O)Nc2ccccc2SCc2cc(=O)n3nc(C)sc3n2)cc(OC)c1OC,3.6,6%,0.71,0.4,0.1,2.0,-3
Cc1oc2c(CN3CCCCC3C)c(O)ccc2c(=O)c1-c1ccc(Br)cc1 (stereo unspecified),-0.3,6%,0.68,-1.1,-0.5,-396,2
CSc1ccccc1C(=O)N1CCN(S(=O)(=O)c2sc(C(=O)O)c(C)c2C(=O)O)CC1,11,·,0.69,-4.5,0.5,0.7,-2
CCCc1[nH]nc2c1C(Cc1ccccc1)C(C#N)=C(N)O2 (stereo unspecified),-0.1,16%,0.69,-2.0,0.0,0.4,7
COc1ccc(S(=O)(=O)Cc2ccc(C(=O)NCCc3ccc(S(N)(=O)=O)cc3)o2)cc1,-0.7,4%,0.75,2.4,0.3,0.9,12
CCc1cc2c(=O)c(-c3nc4ccccc4n3C)c(C)oc2c(CN2CCCCC2)c1O,-1.2,4%,0.67,-1.1,0.4,-90,-3
CCc1nnc(NC(=O)c2cc(-c3ccccc3)nn2-c2ccccc2)s1,-0.6,-11%,0.69,4.7,1.1,2.6,3
CCCSc1nnc(NC(=O)c2nc(SC)ncc2Cl)s1,8.1,-3%,0.68,5.6,-0.7,8.7,-3
CCn1c(CNC(=O)c2ccco2)nnc1SCC(=O)Nc1ccccc1Cl,-5.8,·,0.66,-0.6,0.1,5.2,-5
Cc1ccc(-n2c3nc(=O)n(C)c(=O)c-3cc3ccccc32)cc1,1.7,15%,0.67,-1.7,-0.4,-399,6
Cc1ccc(NC(=O)CSc2nnc(NC(=O)C(C)C)s2)c(C)c1,6.1,·,0.67,0.3,-0.5,3.6,-2
S=C(Nc1ccccc1)Nn1cnnc1,0.9,-1%,0.68,-2.7,-0.1,3.3,5

Some of these compounds in order of the Vif A3G value, lowest first.
| SMILES | LANA-H2A inh | Vif A3G | HNF4A DNA FP | UCH37 DUB inh | Beta2AR agonist |
| --- | --- | --- | --- | --- | --- |
| CCc1cc2c(=O)c(-c3nc4ccccc4n3C)c(C)oc2c(CN2CCCCC2)c1O | -1.2 | 4% | -1.1 | -90 | -3 |
| Cc1ccc(-n2c3nc(=O)n(C)c(=O)c-3cc3ccccc32)cc1 | 1.7 | 15% | -1.7 | -399 | 6 |
| CCCc1[nH]nc2c1C(Cc1ccccc1)C(C#N)=C(N)O2 (stereo unspecified) | -0.1 | 16% | -2.0 | 0.4 | 7 |
